Bioassay records as filed in PubChem.
Polio RdRp inh = poliovirus RNA polymerase inhibition; P03300; poliovirus polymerase elongation, fluorescence polarization; active compounds read low; % elongation, % (compound at 16.7 µg/mL); hit rate 0.66% among 150,000; AID 588519; in the data active means % elongation below about 90%; further: some results filed as inactive read as strong as hits
Target sequence (P03300 1749-2209 limits assumed): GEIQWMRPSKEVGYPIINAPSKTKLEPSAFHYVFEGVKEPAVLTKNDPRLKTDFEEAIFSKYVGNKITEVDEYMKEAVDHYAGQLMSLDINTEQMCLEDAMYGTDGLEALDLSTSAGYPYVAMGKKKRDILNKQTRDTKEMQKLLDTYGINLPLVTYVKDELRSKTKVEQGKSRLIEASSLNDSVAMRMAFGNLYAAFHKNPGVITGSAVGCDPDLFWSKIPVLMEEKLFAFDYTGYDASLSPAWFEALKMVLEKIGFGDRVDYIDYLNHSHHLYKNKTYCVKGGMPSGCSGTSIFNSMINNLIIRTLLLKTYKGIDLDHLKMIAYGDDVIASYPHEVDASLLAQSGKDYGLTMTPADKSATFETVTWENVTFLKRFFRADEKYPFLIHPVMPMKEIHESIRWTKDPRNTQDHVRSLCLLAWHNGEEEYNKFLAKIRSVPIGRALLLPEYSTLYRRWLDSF
Polio RdRp inh intensity = further read-out of Polio RdRp inh, marked with its call; % elongation; measured here: total intensity read-out; formula for this scale not given here;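 total fluorescence in place of polarization; lower means less elongation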
Starred values were filed as active, the others as inactive. Some of the compounds tested; the hit share may differ from the screen's.

SMILES	Polio RdRp inh intensity	Polio RdRp inh
CCCCC12CN3CC(C)(CN(C1)C3c1ccccn1)C2=O (stereo unspecified)	126	118
CCn1c2ccccc2c2nnc(N3CCN(c4cccc(Cl)c4)CC3)nc21	111	103
Clc1ccc(CCNC(c2ccc(Cl)cc2)c2nnc(-c3ccccc3)o2)cc1 (stereo unspecified)	110	104
CC(C)Cc1ccc(S(=O)(=O)N2CCC(c3ccncc3)CC2)cc1	107	113
CCN1CCN(c2cc(C)c3cc(NC(=O)c4cc(OC)cc(OC)c4)ccc3n2)CC1	91	97
O=C(COCc1cc(-c2ccco2)on1)Nc1cccc(O)c1	109	105
Cc1ccc(C)n1-c1nnc(N2CCC(C(=O)NCc3ccc(F)cc3)CC2)s1	109	110
Cn1c(=O)n(-c2cccc(Cl)c2)c(=O)c2sc3ccccc3c21	110	106
CC(C)CCn1c(=O)c2cccnc2n(CC(=O)Nc2ccccc2F)c1=O	106	103
Cc1cc(C)cc(-n2c(SCC(=O)N3CCC(C)CC3)nc3c([nH]c4ccccc43)c2=O)c1	110	104
Cc1cccc(N(C)C(=O)C2CCC(CNS(=O)(=O)c3cccc4nsnc34)CC2)c1 (stereo unspecified)	111	108
Cc1ccc(NC(=O)CN2C(=O)C(c3ccccc3)=NC23CCCCC3)cc1C	111	109

Full records as entered above. Order of screens: Polio RdRp inh intensity, Polio RdRp inh
Record of Cc1ccc(NC(=O)CN2C(=O)C(c3ccccc3)=NC23CCCCC3)cc1C → 111, 109
Record of CCn1c2ccccc2c2nnc(N3CCN(c4cccc(Cl)c4)CC3)nc21 → 111, 103

The listing continues.
SMILES	Polio RdRp inh intensity	Polio RdRp inh
Cc1c(Nc2nc3ccccc3n3c(C)nnc23)cccc1C(=O)O	110	103
COc1cc(OC)cc(C(=O)Nc2ccc3nc(N4CCCCC4)cc(C)c3c2)c1	106	105
Cc1c2cnn(CC(=O)NCc3ccc(F)cc3)c(=O)c2c(C)n1Cc1ccccc1F	111	109
COc1ccc(NC(=O)CCCOc2cc(=O)n(C)c3ccccc23)c(OC)c1	96	100
Cc1ccc(CCNC(=O)CS(=O)Cc2nc(-c3ccccc3C)oc2C)cc1 (stereo unspecified)	107	105
COc1cc(CN2CCc3nc(N4CCN(c5ncccn5)CC4)ncc3C2)cc(OC)c1OC	100	96
Cc1cccc(OC(=O)CSc2nnc(-c3cccs3)o2)c1C	113	109
CCc1nn(CC(=O)Nc2c(C)cc(C)cc2C)c(=O)c2cc3sccc3n12	101	105
O=C(NCc1cccc(Cl)c1)c1cc2c(s1)-c1ccccc1SC2	104	107
CC(C)c1ccc(Cc2cnc(NC(=O)c3ccc4c(c3)CC(c3ccccc3)OC4=O)s2)cc1 (stereo unspecified)	110	103
Cc1ccc(SCC(=O)Nc2ccc3oc(-c4ccccc4F)nc3c2)cc1	113	110
Cc1cccc(-n2c(CNC(=O)c3cccc(F)c3)nnc2SCC(=O)Nc2ccccc2F)c1	105	106

Arranged by length of the SMILES (rising): three of the compounds above.
SMILES	Polio RdRp inh intensity	Polio RdRp inh
Cc1c(Nc2nc3ccccc3n3c(C)nnc23)cccc1C(=O)O	110	103
CCc1nn(CC(=O)Nc2c(C)cc(C)cc2C)c(=O)c2cc3sccc3n12	101	105
COc1cc(OC)cc(C(=O)Nc2ccc3nc(N4CCCCC4)cc(C)c3c2)c1	106	105

Additional structures.
SMILES	Polio RdRp inh intensity	Polio RdRp inh
NC(=O)c1ccc(NC(=O)c2cccn(Cc3ccccc3)c2=O)cc1	105	111
CC(C)(C)OC(=O)N1CCC(c2c(C(=O)N3CCN(Cc4ccccc4)CC3)cnn2-c2cccc(Cl)c2)CC1	105	103
COc1cc(OC)c(Nc2nc3ccccc3c3nncn23)cc1Cl	95	96
CCOc1ccc(CCNC(=O)CCn2c(=O)c3cccn3c3ccc(F)cc32)cc1OCC	106	106
CC(C)N(C(=O)CSc1cn(CC(=O)N2CCCCCC2)c2ccccc12)C(C)C	123	118
CN1C(=O)Cc2cc(S(=O)(=O)CCC(=O)Nc3ccc(F)c(Cl)c3)ccc21	112	110
COc1ccccc1CNC(=O)c1ccc2[nH]c(C)c(C)c2c1	108	109
Cc1ccccc1CSCCNC(=O)C1CCN(S(=O)(=O)Cc2ccccc2)CC1	95	103
CCOc1ccc(C(=O)Nc2nnc(S(=O)(=O)N(CC)c3ccccc3C)s2)cc1	109	115
CCN(CC)C(=O)Cn1c(=O)n(CCCCCC(=O)Nc2ccccc2)c(=O)c2sccc21	114	109
COc1ccc(CCNC(=O)c2nc(SCc3ccccc3F)ncc2Cl)cc1OC	99	97
Fc1ccc(-n2ncc3c(N4CCN(Cc5ccccc5)CC4)ncnc32)cc1	113	106
O=C1Nc2c(c(=O)[nH]c(=O)n2-c2ccc(F)cc2)C1(NS(=O)(=O)c1ccc(Cl)cc1)C(F)(F)F (stereo unspecified)	105	104
Cc1ccc2nc(NS(=O)(=O)c3ccc(Cl)cc3)c(Nc3ccc(C(=O)O)cc3)nc2c1	109	107
CCC(CC)C(=O)Nc1nnc(SCc2cc(=O)n3cccc(C)c3n2)s1	111	104
O=C(NCc1cccc(Cl)c1)NCc1noc2ccccc12	110	111
Cc1cccc(C(=O)Oc2c(Sc3ccccc3)c(C)nn2C(C)(C)C)c1	111	105
CCCn1c2ccccc2c2cnn(CC(=O)NCCc3ccc(C)cc3)c(=O)c21	102	103
COc1cccc(CNCCCSc2nnnn2C)c1OC	107	113
CCCN(CCC)CCCNC(=O)c1cc2c(=O)oc3ccc(C)cc3c2s1	102	98
CCOC(=O)c1c(-c2ccc(C)cc2)csc1NC(=O)c1nc(SC(C)C)ncc1Cl	112	106
CCc1ccc(N2C(=O)CS(=O)(=O)C23C(=O)N(Cc2ccccc2)c2ccccc23)cc1 (stereo unspecified)	110	105
Cc1cccc(NC(=O)CCS(=O)(=O)c2cccc3nsnc23)c1C	102	103
Cc1ccccc1NC(=O)c1sc2nc(-c3cc4ccccc4oc3=O)[nH]c(=O)c2c1C	190	75

Exported with values under each structure: part of the list above.
Fields – Polio RdRp inh intensity, Polio RdRp inh
Cc1cccc(C(=O)Oc2c(Sc3ccccc3)c(C)nn2C(C)(C)C)c1
 : 111, 105
CCC(CC)C(=O)Nc1nnc(SCc2cc(=O)n3cccc(C)c3n2)s1
 : 111, 104
CCc1ccc(N2C(=O)CS(=O)(=O)C23C(=O)N(Cc2ccccc2)c2ccccc23)cc1 (stereo unspecified)
 : 110, 105
Cc1cccc(NC(=O)CCS(=O)(=O)c2cccc3nsnc23)c1C
 : 102, 103
Cc1ccccc1NC(=O)c1sc2nc(-c3cc4ccccc4oc3=O)[nH]c(=O)c2c1C
 : 190, 75
CCOC(=O)c1c(-c2ccc(C)cc2)csc1NC(=O)c1nc(SC(C)C)ncc1Cl
 : 112, 106

The list goes on:
SMILES	Polio RdRp inh intensity	Polio RdRp inh
Oc1c(C(c2ccccc2Cl)N2CCN(Cc3ccccc3)CC2)sc2nc(-c3ccco3)nn12 (stereo unspecified)	110	108
Cc1ccc(CNC(=O)C(=O)Nc2c3c(nn2-c2ccccc2)CSC3)cc1	102	96
CCOC(=O)c1cccc(NC(=O)C2(S(=O)(=O)c3ccc(C)cc3)CC2)c1	111	111
Cc1ccc(-n2nc3c(N4CCC(C(=O)NCc5ccccc5Cl)CC4)nnc(C)c3c2C)cc1	99	106
CC(C)c1cnc2c(c1SCC(=O)NCc1ccccc1Cl)c(=O)n(C)c(=O)n2C	112	115
CCOc1ccc(CCNC(=O)c2cc3cc4cc(OC)ccc4nc3s2)cc1OCC	112	111
Cn1c(SCC(=O)N2CCOCC2)ncc(C(=O)Nc2ccc(F)cc2)c1=O	112	109
COc1cccc(C2=NS(=O)(=O)N(C)C(C(=O)Nc3cccc(O)c3)=C2)c1	15*	-16*
Cc1ccc(-c2cn3c(n2)sc2cc(C(=O)NCc4cccs4)ccc23)cc1	95	98
COc1ccc(NC(=O)c2cc3nc(-c4ccc(C)c(C)c4)cc(C(F)(F)F)n3n2)cc1	103	104
COc1ccc(NC(=O)NC2COc3ccccc3C2)c(OC)c1 (stereo unspecified)	112	105
Cc1cc(NC(=O)N(C)CCc2c(C)nn(C)c2C)ccc1Br	106	104
Cc1cccc(C(=O)N2CCc3cc(CNS(=O)(=O)c4ccc(F)c(Cl)c4)ccc32)c1	105	109
O=C(CSc1ccc2ccccc2n1)Nc1nsc(-c2ccc(Cl)cc2)n1	103	101
CCOc1ccc(NC(=O)C(CC)n2nc(-c3ccc(C)c(C)c3)ccc2=O)cc1 (stereo unspecified)	106	108
COc1ccccc1CNc1ccc(-c2nc(-c3cccc(C)c3)no2)cc1[N+](=O)[O-]	113	109
CCC(Sc1nnc2c3ccccc3n(CC)c2n1)C(=O)Nc1nnc(C(C)C)s1 (stereo unspecified)	113	109
COc1ccc(C(=O)Nc2ccc3oc(-c4ccc5ccccc5c4)nc3c2)cc1Br	113	104
Cc1ccc(-c2nc(CS(=O)CC(=O)O)c(C)o2)cc1 (stereo unspecified)	102	104
Cc1ccc(C)n1-c1nnc(N2CCCC(C(=O)NCc3ccc(Cl)cc3)C2)s1 (stereo unspecified)	105	101
CN(C(=O)c1cc2c(s1)-c1ccc(Cl)cc1SC2)c1cccc(C(F)(F)F)c1	112	111
Cc1ccc(-c2nnc(Nc3ccc(C(=O)N(C)C)cc3)c3ccccc23)cc1S(=O)(=O)N(C)C	110	107
Cc1c(CC(=O)NCCc2ccccc2F)c(=O)oc2c(C)c3occ(C(C)(C)C)c3cc12	113	112
CCOC(=O)c1ccc(NC(=O)CCc2c(C)n(CC)c3cc(-c4ccccc4OC)nn3c2=O)cc1	111	110
Cc1nc(-c2cccc(S(=O)(=O)N3CCC(C(=O)NCc4ccccc4Cl)CC3)c2)no1	108	107
COc1ccc(C(=O)Nc2nc3c(s2)CCCC3)cc1Cl	96	101
COc1ccc(CNC(=O)C(Cc2ccccc2)NS(=O)(=O)c2ccc3c(c2)CCN3C(C)=O)cc1 (stereo unspecified)	98	106
COc1ccc(C(=O)Nc2ccc(-c3nc4ccccc4s3)cc2C)cc1Cl	105	103
COc1cc(/C=C(\C#N)c2nc3ccccc3[nH]2)cc(Cl)c1OCc1ccccc1Cl	116	105
CCc1cccc(NC(=O)c2cc3c(s2)-c2ccccc2OC3)c1	108	104
Cc1cc2c(cc1C)NC(CC(=O)Nc1ccccc1SC(F)(F)F)C(=O)N2 (stereo unspecified)	105	104
Cc1cccc(CNC(=O)c2sc3ncnc(N(C)C4CCCCC4)c3c2C)c1	116	110
CCN(CC)S(=O)(=O)c1ccc2c(c1)nc(CN(C)C(=O)Nc1ccc(Cl)cc1)n2C	115	110
Cc1ccc(OCC(=O)NCC(=O)OCc2cc(=O)n3nc(C(C)C)sc3n2)cc1	104	107
CCc1ccc(Nc2sc(C(=O)c3ccc(F)cc3)c(N)c2S(=O)(=O)c2ccccc2)cc1	113	109
O=C(Nc1ccc2nc(SCCOc3ccccc3Cl)sc2c1)c1ccco1	112	110
COc1ccc(C)cc1NC(=O)CN1C(=O)COc2ccc(S(=O)(=O)N3CCC(C)CC3)cc21	116	116
COc1ccc(OC)c(CCNC(=O)c2cc3cccc4c3n2CCS4)c1	110	105
CSc1cccc(NC(=O)c2cnn(-c3ccc(F)cc3)c2-n2cccc2)c1	113	107
CCOC(=O)CNc1nc(Oc2ccc(=O)n(C)n2)nc(N(CC)CC)n1	108	103

Entries above with a tert-butyl group (3):
SMILES	Polio RdRp inh intensity	Polio RdRp inh
CC(C)(C)OC(=O)N1CCC(c2c(C(=O)N3CCN(Cc4ccccc4)CC3)cnn2-c2cccc(Cl)c2)CC1	105	103
Cc1cccc(C(=O)Oc2c(Sc3ccccc3)c(C)nn2C(C)(C)C)c1	111	105
Cc1c(CC(=O)NCCc2ccccc2F)c(=O)oc2c(C)c3occ(C(C)(C)C)c3cc12	113	112
